A1 inh – inhibitors of the anti-apoptotic protein A1, read as caspase activation; MEF A1-2A-BIM cells, Caspase-Glo 3/7 luminescence, 3 h; percent of clofoctol response, vehicle zero; caspase activation, % (concentration not given with the values); 0.066% of 330,000 active; AID 2462;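 active = over half of replicate activation scores above 10%, or exactly half above 10 with the replicate mean above 10; inconclusive = replicate mean below 10 yet half the replicates above 10; inactive = over half of replicates below 10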;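 also: wells of about 30 µL received 50 nL stock; many hits fall short of the cut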
AF4-AF9 inh – MLL-AF4/AF9 protein interaction inhibition. P42568. AlphaScreen, biotin-AF4 peptide binding to FLAG-AF9. inhibition, % at 10 µM. 0.47% of 350,000 active;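 active = every replicate reaching a set inhibition limit, whatever the replicate mean, cut at about 25% in these data; inconclusive = mean inhibition reaches that limit but some replicates miss it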;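 also: 0% = plate neutral control median and 100% = total signal loss; the record names both 10 and 1 µM as test concentration; the first replicate is given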
Target sequence (P42568 whole entry, looked up): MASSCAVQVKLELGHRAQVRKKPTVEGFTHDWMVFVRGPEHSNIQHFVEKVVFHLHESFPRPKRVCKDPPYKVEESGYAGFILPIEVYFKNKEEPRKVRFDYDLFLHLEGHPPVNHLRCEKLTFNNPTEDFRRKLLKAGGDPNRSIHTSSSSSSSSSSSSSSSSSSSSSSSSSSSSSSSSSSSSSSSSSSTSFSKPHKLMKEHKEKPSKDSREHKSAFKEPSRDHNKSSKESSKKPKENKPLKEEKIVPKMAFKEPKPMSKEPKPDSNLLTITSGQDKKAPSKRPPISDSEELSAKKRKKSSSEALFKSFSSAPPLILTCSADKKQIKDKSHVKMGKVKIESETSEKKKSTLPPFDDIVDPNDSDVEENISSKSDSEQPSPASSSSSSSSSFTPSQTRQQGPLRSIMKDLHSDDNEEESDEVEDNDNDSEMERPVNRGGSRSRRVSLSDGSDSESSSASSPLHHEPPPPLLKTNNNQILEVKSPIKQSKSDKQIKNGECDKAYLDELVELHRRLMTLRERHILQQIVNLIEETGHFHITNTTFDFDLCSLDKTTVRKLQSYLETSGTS
T cruzi repl – T. cruzi replication inhibition; T. cruzi beta-gal in NIH3T3, luminescence, 90 h; inhibition, % (test concentration not listed); AID 1885; 1.4% of 300,000 active;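 active = mean inhibition across valid replicates above about 55%, limit read from the data; inconclusive = mean below that limit but half or more replicates reach it; inactive = mean below it, under half of replicates reach it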;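 also: signal also drops with host cell toxicity which is not excluded here; 0% = plate median of DMSO wells and 100% = zero luminescence signal; higher percent means less beta-gal luminescence so fewer parasites; stock transfer was 50 nL into about 50 µL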
Vif TR-FRET – HIV-1 Vif–A3G interaction blockers – biochemical, TR-FRET, GST-Vif 1-94, biotin-A3G peptide, dose response retest, primary screen (AID 1117319); TR-FRET GST-Vif / biotin-A3G peptide binding; higher % means a stronger effect; test concentration not given here; strong numbers were not always called active; inhibition, %; hits with a dose series show IC50 in µM; 0.57% of 260,000 active;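 active = above the screen mean plus three standard deviations and confirmed in dose response; inconclusive = results disagree or hit not tested in dose response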;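 also: Vif residues 1-94 fused to GST binding biotinylated APOBEC3G peptide 110-148; 0% = full assay without inhibitor and 100% = GST in place of GST-Vif; retest series ran down from 100 µM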
Calb FLC – affects C. albicans growth with fluconazole; 0.57% of 300,000 active; growth inhibition, % (concentration not given with the values); C. albicans CaCi-2 (fluconazole-resistant clinical isolate) + fluconazole, Alamar Blue growth, 48 h;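 active = most replicates above 75%; inconclusive = exactly half above 75%; inactive = most below 75%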;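 also: all wells also contain fluconazole at 8 µg/ml as a sub-toxic cotreatment; 0% = median of DMSO wells and 100% = median of geldanamycin control wells; wells of about 8 µL received 7.5 nL stock; the first replicate is given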
RanGTP-Imp inh – inhibitors of RanGTP-importin-beta interaction, primary screen, biochemical, FRET, CFP-Ran, YFP-importin-beta, homogeneous; cell-free CFP-Ran/YFP-importin-beta FRET ratio; inhibition, % (test concentration not listed); 1.1% of 300,000 active; AID 2216;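 active = most replicates above 15%; inconclusive = exactly half above 15%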;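 also: 0% = DMSO wells and 100% = Ran loaded with GDP instead of GTP; wells of about 40 µL received 100 nL stock; the first replicate is given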
LANA-H2B inh – blocks KSHV LANA binding to histone H2A/H2B; cell-free LANA-H2A/H2B peptide, fluorescence polarization; inhibition, % (no concentration beside the values); 0.6% of 320,000 active; AID 2629; in the data active = inhibition mostly above about 10%, no sharp cut-off; inactive = mostly below about 6.7%;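 also: stock transfer was 7.5 nL into about 10 µL; 0% = median of vehicle wells and 100% = median of positive control wells; one replicate is shown; the record names a cut of 25% in any replicate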
Beta apoptosis – blocks beta cell apoptosis. INS-1E cytokine-induced death, ATP luminescence, 48 h; percent of positive-control rescue, neutral wells zero. protection from apoptosis, % (concentration not given with the values). 0.8% of 300,000 active;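 active = all replicates at 75% or more, or half of them and the mean; inconclusive = half reach 75% but not the mean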;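 also: 0% = cytokine-treated negative control wells and 100% = positive control rescue; higher means more ATP so stronger rescue from cytokine killing; wells of about 40 µL received 100 nL stock; the first replicate is given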
The depositor's hits bear a star; ? = inconclusive; . = no result given. No enrichment for hits. About 4.3% of those tested had a hit in this group.

SMILES	A1 inh	AF4-AF9 inh	T cruzi repl	Vif TR-FRET	Calb FLC	RanGTP-Imp inh	LANA-H2B inh	Beta apoptosis
O=C(Oc1cccc(/C=N/NC(=O)c2ccccn2)c1)c1ccc([N+](=O)[O-])cc1	-5.7	-16	7	9%	15	0.9	7.0	14
CCN(CC)P1(=O)OC(c2cc(OC)c(OC)c(OC)c2)=Nc2c1c(C)nn2-c1ccccc1 (stereo not given)	-0.3	.	-9	2%	-9	?	-1.1	4
CC(C)(O)C#Cc1ccc(C(=O)N2CCN(c3ccc([N+](=O)[O-])cc3)CC2)cc1	0.0	2.4	-21	-5%	-3	-5.3	-3.3	14
CC(C)NC(=S)N1CCCN(c2ncccc2[N+](=O)[O-])CC1	1.3	-0.6	5	-7%	0	-0.2	3.6	.
c1coc(CNc2nc3ccccc3s2)c1	-2.0	-0.5	-5	1%	-6	4.5	-4.3	-7
CCOc1ccccc1C(=O)Nc1ccsc1C(=O)OC	0.3	.	3	-9%	59	1.6	-452	5
CC(=O)N/C(=C\c1ccccc1)C(=O)OCc1ccc(C)cc1	0.1	0.1	1	.	0	3.0	-2.3	-1
C=CCn1c(C)cc(C(=O)CSc2nnc(NC(C)C)s2)c1C	0.0	.	0	?	1	3.8	1.8	-3
CCCc1ccc(C(=O)COC(=O)CN2C(=O)NC3(CCCCC3C)C2=O)cc1 (stereo not given)	-0.6	2.9	.	-13%	.	.	-2.7	-13
N#Cc1ccc(OCc2nnc3n2CCCCC3)cc1	-0.5	-7.2	-1	-1%	-5	?	0.4	2
CCOc1ccc2nc(Cl)c(CN(C(=O)c3cnccn3)C3CCCC3)cc2c1	0.1	-0.4	11	9%	0	13	-5.6	4
COc1ccc2sc(NC(C)=O)nc2c1	-6.3	.	-9	3%	-9	6.1	-1.2	-1
S=C(NCC1(c2ccccc2)CCCC1)Nc1ccccc1	0.7	-2.2	-9	-5%	-6	3.0	-2.4	21
COCCOc1nc2ccccc2nc1C	0.8	.	-7	10%	-10	4.8	3.9	-2
CCN(c1ccccc1)S(=O)(=O)c1ccc(C(=O)Nc2ccncc2)cc1	1.1	8.1	48	8%	-11	2.5	0.3	-9
O=C(CSc1cccc(C(F)(F)F)c1)NC(=O)NCc1ccco1	0.2	.	13	29%	13	0.5	7.7	.
O=C(Nc1ccc(NC(=O)c2ccccc2Cl)nc1)c1ccncc1	0.3	-0.1	-16	2%	3	-4.5	1.6	6
COC(=O)c1cc(S(=O)(=O)NCC2CCN(CCc3ccc(OC)cc3)CC2)c[nH]1	2.0	1.2	18	.	-18	-0.3	5.1	-13
COc1ccc(C(=O)Cn2c(Br)nc3c2c(=O)n(C)c(=O)n3C)cc1	-0.2	4.9	5	-1%	6	1.0	9.1	.
Cc1cccc[n+]1CC(=O)N1c2ccccc2Sc2ccccc21	0.0	-0.3	26	.	1	-0.9	2.8	0
O=C(O)c1ccc(CNC(=O)c2ccc(Br)o2)cc1	-0.3	-27	-1	6%	4	1.9	-2.0	0
CCN(CC)S(=O)(=O)c1ccc(N2CCCC2)c(NC(=O)CC(C)(C)C)c1	1.7	-0.3	-2	?	2	-2.3	4.2	-6
Cc1cc(F)ccc1S(=O)(=O)N1CCCOC1CNC(=O)C(=O)NCc1cccnc1 (stereo not given)	0.5	4.4	-4	-6%	-2	-5.5	-2.6	11
COc1ccc(/C=N/N2CCN(C3c4ccccc4-c4ccccc43)CC2)cc1O	-0.5	.	-7	0%	4	9.8	-3.9	.
O=C(CCN1CCOCC1)c1ccccc1	-0.5	-3.1	13	-1%	-14	?	-1.6	-19
SMILES	A1 inh	AF4-AF9 inh	T cruzi repl	Vif TR-FRET	Calb FLC	RanGTP-Imp inh	LANA-H2B inh	Beta apoptosis
CCC(C)NCCOCCOc1ccc(Br)cc1C (stereo not given)	0.4	-85	?	-1%	-11	0.5	-2.5	1
Cc1cc(=O)[nH]c(SCc2cc(Cl)ccc2OC(F)F)n1	-0.1	.	-3	2%	-2	9.5	8.0	-4
Cn1c(N)c(C(=O)c2cc(-c3ccccn3)nc3ccccc23)c(=O)[nH]c1=O	.	.	-14	3%	-11	0.9	.	.
Cc1cccc(OCc2nnc(SCC(=O)N(c3ccccc3)C3CCS(=O)(=O)C3)o2)c1 (stereo not given)	-0.8	-0.7	.	.	.	.	-1.1	2
COc1ccc(C(C)=O)cc1CSc1ccc2c(c1)OCCO2	-0.1	-5.6	2	.	11	?	4.8	-2
c1ccn2c(SCc3ccc4c(c3)OCO4)nnc2c1	-0.6	.	-13	1%	2	4.1	2.8	-2
O=c1[nH]c(C2CCN(S(=O)(=O)Cc3ccccc3)CC2)nc2c1nnn2Cc1cccc(Cl)c1	-0.1	-9.2	10	.	4	1.2	-1.7	11
Cc1ccc(/C=N/n2nnnc2N)cc1	-1.2	3.0	-10	.	2	4.8	0.5	-3
COc1ccccc1OC(C)C(=O)N(Cc1ccco1)C1CCS(=O)(=O)C1 (stereo not given)	0.2	.	-3	.	-2	-2.7	-2.5	0
O=S(=O)(NCC1CCCO1)c1ccc(Cl)cc1 (stereo not given)	-0.1	1.3	-3	.	7	2.9	7.4	-6
O=C(NCc1ccccc1)c1ccc2c(c1)C(=O)N(Cc1cccnc1)C2=O	-0.1	-0.9	1	-8%	2	1.9	-4.4	-4
Cc1ccsc1C(=O)OCC(=O)NC1CC1	2.1	-1.7	.	.	.	.	0.1	-6
CC(Sc1nnnn1C)C(=O)Nc1ccc2c(c1)OCCO2 (stereo not given)	-0.4	-0.1	-6	-4%	3	-0.4	0.6	4
CCNC(=O)c1nc[nH]c1C(=O)NCC	-0.1	.	4	11%	1	6.1	3.0	3
Cc1nn(-c2ccccc2)c(Oc2ccc(F)cc2)c1/C=N/n1cnnc1	-0.1	.	.	16%	.	.	1.9	2
CCN(CC)C(=O)C1c2ccccc2Oc2ccccc21	-1.1	-5.9	-8	.	-1	-6.1	14*	1
COc1ccccc1CNC(=O)CCCC(=O)n1nc(C)c2ccccc21	-0.7	-6.3	3	.	1	2.7	-5.8	0
O=C(NCCOc1ccc(Cl)cc1)C1CCCCC1	0.6	-1.3	-5	-4%	10	1.2	-10	-18
N#CCC(=O)Nc1ccc(C(=O)OCC(=O)N(C2CCCCC2)C2CCCCC2)cc1	-0.5	-4.9	7	-1%	-6	-2.8	-8.7	3
CCOn1c(=O)c[n+]([O-])c2ccccc21	-0.9	-0.5	9	.	-3	-0.3	-8.0	-2
O=C1NC(=O)/C(=C/c2ccc(-c3cc(C(=O)O)ccc3Cl)o2)S1	-0.5	-4.1	-10	.	20	9.4	2.1	1
CCOC(=O)c1cnc(N2CCN(C(=O)OCC)CC2)[nH]c1=O	0.7	1.6	-4	1%	18	1.2	0.0	-2
O=C(NCCCN1CCCC1)c1ccc2c(c1)N(Cc1ccc(F)cc1)C(=O)c1ccccc1S2=O (stereo not given)	0.8	0.4	20	1%	7	2.2	-1.5	-5
CCOC(=O)C(C(=O)NCCCN1CCOCC1)C1CCCCC1 (stereo not given)	0.7	.	9	-5%	8	0.6	-8.6	-6
O=c1[nH][nH]c(C(F)(F)F)c1C=NCc1ccc(Cl)cc1	0.2	.	-5	-1%	1	0.6	-0.7	-2
SMILES	A1 inh	AF4-AF9 inh	T cruzi repl	Vif TR-FRET	Calb FLC	RanGTP-Imp inh	LANA-H2B inh	Beta apoptosis
Cc1cc(C)n(-c2ccc(C(=O)Oc3ccc4c(c3)OCO4)cc2)n1	-2.1	.	-9	7%	-21	2.4	-3.7	1
C=CCNC(=O)C12CC3(C)CC(C)(CC(C)(C3)C1)C2	-0.5	.	-3	2%	-24	6.4	-5.3	13
Oc1ccc(Cl)cc1C1=NNC(c2ccc(Cl)cc2)C1 (stereo not given)	0.2	-11	-4	.	0	-3.1	-0.5	3
Cc1ccc(S(=O)(=O)NC(=NC2CCCCC2)c2ccccc2)cc1	0.2	1.1	10	.	1	2.7	-1.7	.
CN(C1CCCCC1)S(=O)(=O)c1cccc(C(=O)OCC(=O)NC2CCCc3ccccc32)c1 (stereo not given)	0.1	.	7	88%	8	2.2	.	-5
COc1cc2c(=O)n(CCCN3CCOCC3)c(=S)[nH]c2c(OC)c1OC	-0.1	.	-3	31%	-24	-0.4	3.3	2
COc1cc2c(cc1OC)C(C(=O)Nc1ccc3c(c1)OCCO3)C(c1cccnc1)N(C)C2=O (stereo not given)	0.3	.	6	-8%	-9	-1.2	4.7	1
O=C(Nc1ccc(Cl)cn1)C1C(c2ccccc2)C1(Cl)Cl (stereo not given)	0.2	-2.8	11	0%	5	-0.8	-3.2	29
CCC(Oc1ccccc1F)C(=O)Nc1ccc2c(c1)n(C)c(=O)n2C (stereo not given)	1.9	-0.6	2	.	10	1.8	1.5	-6
COc1cc(/C=N/NC(=O)CSc2ccccn2)ccc1OC(C)C	0.4	-1.2	-11	12%	-23	-1.5	2.0	-8
COc1ccc(NC(=O)CN(C)C(=O)/C=C/c2ccc(S(=O)(=O)N3CCCCCC3)cc2)cc1	?	-1.3	5	.	-4	.	110*	75*
Cc1cc(C)cc(-n2c(C)cc(C=C(C#N)C#N)c2C)c1	-0.5	.	-4	24%	-18	-3.4	3.8	3
Cc1onc(-c2ccccc2Cl)c1C(=O)N1CCN(c2nc3ccccc3s2)CC1	-0.5	.	13	-7%	8	1.8	1.9	-1
COC(=O)CCCNC(=O)c1ccc(OC2CCN(CCc3ccccc3)CC2)cc1	0.9	1.6	-27	1%	-1	-1.8	3.1	-3
O=C(N/N=C/c1ccc(OC(=O)c2cccs2)cc1)c1ccccn1	-11	0.8	-3	-6%	8	2.2	0.9	3
COc1ccc(CC(=O)Nc2c3c(nn2-c2cccc(C)c2C)CS(=O)C3)cc1 (stereo not given)	0.7	.	-2	10%	-7	7.0	-3.0	0
O=C1OCC(Cn2c3ccccc3c3ccccc32)O1 (stereo not given)	0.7	.	-21	-6%	9	8.2	1.5	-4
CN(/C(=N/S(=O)(=O)c1cccs1)c1ccccc1)c1ccccc1	2.3	.	1	1%	-8	-1.3	3.1	-7
CCOC(=O)N1CCN(Cc2cc(=O)oc3ccc(Cl)cc23)CC1	0.6	.	8	3%	19	?	2.6	0
Cc1ccc(NC(=O)N2CCCCCC2)c(C)c1	0.8	-9.6	1	-3%	-4	-0.4	1.6	-4
Cc1ccc(-n2c(C)cc(C(=O)CSc3n[nH]c(N)n3)c2C)cc1	-0.5	.	5	22%	32	-3.5	-6.6	13
Cc1ccc(SCCC(=O)N2CCC(C(N)=O)CC2)cc1	0.2	.	-5	-1%	2	-0.7	3.3	-3
Cc1cc(C)c(CN2CCN(C(=O)Cn3cnc4c(OCc5ccccc5)ncnc43)CC2)c(C)c1	-0.9	1.4	.	.	.	.	-1.2	77*
Cn1ncc2c(N3CCN(c4ccc(Cl)c(Cl)c4)CC3)ncnc21	-0.2	-2.3	19	.	-7	0.6	0.6	?
N#Cc1cccc(NC(=O)CN2NS(=O)(=O)c3ccccc3C2=O)c1	1.6	.	3	7%	0	-0.8	2.8	-2
CC(C)[C@H](NC(=O)c1ccco1)C(=O)OCC(=O)Nc1ccc(F)cc1	0.7	-1.5	-11	.	-3	-0.3	0.4	-7
